Bioassay records: PubChem, ICCB-Longwood Screening Facility, Harvard Medical School
AID504770 = growth inhibitors of E. coli YBA685 in a screen for V. cholerae RctB (chromosome II replication) inhibitors | E. coli YBA685 rctB-dependent plasmid, OD600 growth, 3 h; stronger effect = lower value | 130,000 tested, 0.27% active | z-score (concentration not given with the values);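 active = z-score under -2 on both plates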;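 also: wells of about 30 µL received 100 nL stock; score is relative to mean and SD of the test wells; the first replicate is given; strong numbers were not always called active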
CapD inh = blocks the Bacillus anthracis CapD enzyme; AID 492967; z-score (concentration not given with the values); purified CapD enzyme, fluorescence intensity read-out; stronger effect = lower value; some hits fall short of the stated cut; 140,000 tested, 0.23% active;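 active = z-score under -4 in either of two replicates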;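 also: stock transfer was 100 nL into about 40 µL; score is relative to mean and spread of the plate; one replicate is shown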
The depositor's hits bear a star; x = not tested or not shown. Only part of the results is shown; rates above refer to the full screens.

Compound | AID504770 | CapD inh
COC(=O)C1=C(C(=O)OC)SC(=C2C(=S)C(C)(C)N(C(=O)Cc3ccccc3)c3c(OC)cccc32)S1 | x | -0.135
CC(OC(=O)C12CC3CC(CC(O)(C3)C1)C2)C(=O)N1CCCc2ccccc21 (centres undefined) | -0.05 | x
c1ccc(-c2nc3ccccc3[nH]2)cc1 | 0.25 | x
C=CCn1c(C(=O)OCC)cc2oc(C)cc21 | 1.7 | x
O=C1OC2(CCCC2)OC(=O)C1=Cc1ccc(OCc2ccccc2)cc1 | 1.05 | -0.12
CCCCOC(=O)c1cc(O)c(O)c(O)c1 | -0.5 | -0.435
Cn1ccnc1SCC(=O)N1CCc2ccccc21 | -0.35 | 0.415
Cc1cc(C)nc(N(C)c2ccc(S(=O)(=O)N(C)C)cc2)n1 | x | 0.44
CC(C)n1c(=N)c(C(=O)NC2CCCC2)cc2c(=O)n3ccccc3nc21 | -0.2 | 21.8
Cc1cc2cc(CNC(=S)NCc3ccccc3)ccc2[nH]1 | 0 | 0.825
COCc1cc(C)nc2sc(C(=O)OC)c(-n3cccc3)c12 | 0.1 | 0.165
Oc1ccccc1-c1cc(C(F)(F)F)nc(-c2ccccc2)n1 | 0.7 | 0.115
C(=C\c1c[nH]c2ccccc12)/c1ccccc1 | 0.05 | 0.88
CN/N=C/c1cc2cc(OC)ccc2nc1Cl | -3.05 | x
CCc1ccc(C)nc1NC(=O)c1snnc1C | x | -0.295
CCOC(=O)C1C(=O)NC(SCC(=O)Nc2cc(OC)c(Cl)cc2OC)=C(C#N)C1c1ccccc1OC (centres undefined) | x | -0.58
CN(C1CCCCC1)S(=O)(=O)c1ccccc1NC=C(C#N)C#N | -1.15 | x
O=C(c1c[nH]c2c(F)cccc2c1=O)N1CCNCC1 | -0.5 | x
Cc1nnsc1-c1nc(-c2ccc(Cl)s2)cs1 | 0.25 | 4.24
CCCOC(=O)C1=C(C)NC2=C(C(=O)CC(c3ccc(OC)cc3)C2)C1c1ccc(OC)cc1OC (centres undefined) | x | 25.8
CC(C)c1cc(NC2CCCC2)n2c(nc3ccccc32)c1C#N | -0.95 | x
O=C(Cn1c(=O)oc2ccccc21)OCC(=O)N(C1=CCCCC1)C1CC1 | -0.35 | x
CC(C)(C)c1ccc(C(=O)c2c[nH]c(C(=O)NCCc3ccccn3)c2)cc1 | x | -0.38
O=C(CCSc1nc2ccccc2s1)Nc1ccc(Br)cc1 | x | 0.39
Cc1ccc(C2C(C#N)=C(SCC(=O)Nc3cccc(C)c3C)NC3=C2C(=O)CCC3)o1 (centres undefined) | x | 0.56
COc1ccccc1C(=O)OCC(=O)NC1CCCC1 | -1.55 | 0.315
COc1ccc(N=C2SC(C(=O)Nc3ccc(OC)cc3)CC(=O)N2CCc2ccccc2)cc1 (centres undefined) | x | 0.24
O=C(Nc1ccccc1)C1CCCCC1 | -0.5 | -2.08
O=S(=O)(CCSc1ncccn1)c1ccc(F)cc1 | -0.45 | 0.12
Cc1cc(/C=N/NC(=O)c2cccc(NC(=O)C(C)(C)C)c2)c(C)n1-c1cccc(C(F)(F)F)c1 | x | 6.98
NS(=O)(=O)c1ccc(CNC(=O)c2ccccc2)s1 | 0.65 | 0.755
CCOc1ccc2nc(NCCNC(=O)Nc3cccc(Cl)c3)c(C#N)cc2c1 | -0.4 | x
CCCCn1c(CNC(=O)c2ccco2)nnc1SC(C)C(=O)Nc1sc(C(=O)OCC)c(C)c1C(=O)OCC (centres undefined) | x | -0.41
O=S(=O)(Nc1nc2ccccc2[nH]1)c1ccc2ccccc2c1 | -0.25 | -0.44
Cc1ccc(C(C)NC(=O)C(C)(C)C)c(C)c1 (centres undefined) | 0.4 | 0.785
Cc1cc(C)c2c(-n3cccc3)nn(CC(=O)NC3CC3)c2n1 | 0 | 1.42
CC(O)CNCc1cccc2ccccc12 (centres undefined) | 2.4 | -0.565
Cn1c(=O)cc(OCC(=O)NCc2cccs2)c2ccccc21 | -0.25 | 0.9
C=CCN1C(=O)S/C(=C\c2ccc(OCC(=O)OC)cc2)C1=O | -0.25 | -0.195
O=C(/C=C/c1ccco1)OCC1CCCN2CCCCC12 (centres undefined) | 2.25 | x

7 entries from above, reformatted:
Values run as follows: AID504770 | CapD inh
- O=C(Cn1c(=O)oc2ccccc21)OCC(=O)N(C1=CCCCC1)C1CC1
  -0.35 | x
- CC(C)c1cc(NC2CCCC2)n2c(nc3ccccc32)c1C#N
  -0.95 | x
- O=C(CCSc1nc2ccccc2s1)Nc1ccc(Br)cc1
  x | 0.39
- COc1ccc(N=C2SC(C(=O)Nc3ccc(OC)cc3)CC(=O)N2CCc2ccccc2)cc1 (centres undefined)
  x | 0.24
- NS(=O)(=O)c1ccc(CNC(=O)c2ccccc2)s1
  0.65 | 0.755
- O=S(=O)(CCSc1ncccn1)c1ccc(F)cc1
  -0.45 | 0.12
- CCOc1ccc2nc(NCCNC(=O)Nc3cccc(Cl)c3)c(C#N)cc2c1
  -0.4 | x

Later entries:
Compound | AID504770 | CapD inh
CN(C)c1ccc(-c2nc3c4ccccc4c4ccccc4c3n2C)cc1 | 2.5 | -0.975
Cc1cc(C)nc(/N=C(/NC(=O)c2ccccc2)N2CCC(C(N)=O)CC2)n1 | 0.4 | x
CCC(C)N1CC(C(=O)NCc2ccc3c(c2)OCO3)CC1=O (centres undefined) | -0.5 | 0.06
CCOc1ccc(N2C(=O)NC(=O)/C(=C/c3ccc(N(CC)CC)cc3OC)C2=O)cc1 | x | -0.52
O=C(c1ccc(F)cc1)N(C(=O)c1ccc(F)cc1)c1ncccn1 | -0.55 | 0.02
C(=NC1=NN(c2ccccc2)CC1)N1CCCCC1 | 0.2 | x
O=S(=O)(Nc1nc2ccccc2nc1Cl)c1ccccc1 | -0.05 | x
O=C(O)c1ncoc1-c1ccccc1Cl | 1.2 | 0.695
COC(=O)C(Cc1ccc([N+](=O)[O-])cc1)NC(=O)c1ccc(NC(C)=O)cc1 (centres undefined) | x | -0.685
N#Cc1ccc(C2N(c3ccccc3)CCN2c2ccccc2)cc1 | -0.2 | 0.02
O=C(CSc1ncccc1C(=O)NCC1COc2ccccc2O1)Nc1ccc2c(c1)OCO2 (centres undefined) | -1.65 | x
COc1ccccc1N1CCN(C(=O)c2ccc(S(=O)(=O)N3CCCCC3)cc2)CC1 | -1.2 | 0.26
COc1cc(C2C(C#N)=C(N)Oc3n[nH]c(-c4cccc([N+](=O)[O-])c4)c32)cc(OC)c1OC(C)=O (centres undefined) | x | 0.285
CCOc1cccc(CNc2ccc(N3CCCC3)cc2)c1 | 1.75 | 2.18
CN1CCN(c2ccc(CNC(=O)c3cccnc3Oc3ccc(Cl)cc3)cc2)CC1 | -0.6 | 0.135
CCN1CSC(=S)N(Cc2ccccc2)C1 | -2.85* | 0.525
COc1ccc(-c2ccn[nH]2)cc1 | x | -0.66
O=[N+]([O-])c1ccccc1NCCNc1ncc(C(F)(F)F)cc1Cl | x | -0.58
O=C(COC(=O)/C=C/c1ccc(Br)o1)Nc1cccc2nsnc12 | -0.85 | x
CC(Sc1nnc(C2CC2)n1C1CC1)C(=O)c1c[nH]c2ccccc12 (centres undefined) | -2.75 | x
CCOc1ccc(NC(=O)CSc2nc3ccccc3c(=O)n2CCCC(=O)NCCCN2CCCC2=O)cc1 | x | -0.75
CC(C)(C)c1ccc(Cn2c(CO)cc3sccc32)cc1 | -0.1 | x
CCOc1cc2c(cc1OCC)C1C(C(=O)N3CCCCC3)c3ccccc3C(=O)N1CC2 (centres undefined) | -0.4 | -5.9*
Cc1cc(C(=O)N2CCN(S(=O)(=O)c3ccccc3)CC2)no1 | -0.9 | x
CCOC(=O)c1cc(-c2csc(Nc3ccc(C)cc3)n2)on1 | 2 | -0.65
COc1cc(C(=O)Nc2cccc(-c3nc4cc(Cl)cc(Cl)c4o3)c2)cc(OC)c1OC | x | 0.03
COc1ccc(OC)c(CCNC(=O)c2sc(-n3cccc3)nc2C)c1 | 1.15 | -0.195
Nc1cccc(CCc2ccncc2)c1 | -1.55 | 2.7
O=C(O)CNC(=O)c1nc2ncccn2n1 | -0.35 | x
CCCN1C=C(C(=O)OC)C(c2cccc(Cl)c2)C(C(=O)OC)=C1 | -0.75 | 57.8
N#CC(C(=O)CSc1nc2ccccc2[nH]1)c1ccccc1 (centres undefined) | 1.4 | x
CC1(C)SC(=S)N(/N=C/c2ccco2)C1N(O)C(=O)Nc1cccc(Cl)c1 (centres undefined) | x | -0.685
Cn1c2ccc(Cl)cc2c2nc3ccccc3nc21 | 1.75 | -0.555
CCC(=O)Nc1cccc(N=c2ssc3c2-c2cc(C)c(C)cc2NC3(C)C)c1 | x | -0.915
COc1ccc(Br)cc1C1C(C(=O)OCCOc2ccccc2)=C(C)NC2=C1C(=O)CCC2 (centres undefined) | x | 25.1
CCN(c1cccc(C)c1)S(=O)(=O)c1ccc(OC)cc1 | -0.85 | -0.25
COc1cccc(-c2cc(C(=O)Nc3sc4c(c3C#N)CCC(C(C)(C)C)C4)no2)c1 (centres undefined) | 1.45 | 0.105
Cc1cc(C2C(C#N)=C(N)N(c3ccc(Br)cc3F)C3=C2C(=O)CCC3)c(C)s1 (centres undefined) | x | -0.16
NS(=O)(=O)c1ccc(NC(=O)c2ccccc2C(=O)O)cc1 | -0.55 | 1.23
O=C(O)C1C2C(=O)OC3C(Br)C1C1(CC1)C32 (centres undefined) | x | 6.18
CCOC(=O)C1C2C=CC3(CN(c4ccc(Cl)c(F)c4)C(=O)C13)O2 (centres undefined) | -0.3 | -0.04
COc1ccc(S(=O)(=O)n2c(SCC(=O)Nc3ccccc3F)nc3ccc(OC)cc32)cc1 | x | -0.475
CCC(=O)Nc1cnc(OC)c(C(F)(F)F)c1 | -0.3 | 0.18
COc1ccc(C2=NN(C(=O)CCC(=O)O)C(c3cccc([N+](=O)[O-])c3)C2)cc1 (centres undefined) | x | -1.46
OC1CCN(c2nccc(C(F)(F)F)n2)CC1 | x | 0.28
Cc1nc(CNCc2ccc(CN(C)C)cc2)cs1 | 0.05 | x
O=C1OC2CC3CC2C1C3C(=O)N1CCc2ccccc21 (centres undefined) | 0.15 | x
O=C(COc1ccc(Cl)cc1)N/N=C\c1cn(CC(=O)N2CCOCC2)c2ccccc12 | -1.35 | -0.17
Nc1ccc2c(c1)C/C(=C/c1ccco1)C2=O | -0.75 | x
C=C(C)C1CC=C(/C=N/NC(=O)Cc2c[nH]c3ccccc23)CC1 (centres undefined) | x | 0.32
O=C1CC(=O)N(c2ccccc2)C(=O)N1 | -0.95 | -0.04
O=C(CC1NC(=O)NC1=O)NC1(C(=O)NC2CCCC2)CCCCC1 (centres undefined) | -0.3 | -0.04
CC1CCN(C(=O)c2cc3ccccc3s2)CC1 | 0.2 | -0.605
O=C(CO/N=C/c1ccccc1OC(F)F)N1CCN(C(=O)c2ccco2)CC1 | -1.05 | x
CC(C)(C)NS(=O)(=O)c1cccc2c(N)cccc12 | 0.3 | -0.18
CCOc1cccc2cc(C(=O)Nc3ccc(Oc4ccccc4)cc3)c(=O)oc12 | x | 1.48
COc1ccccc1/C=C(/C(=O)NCCCn1ccnc1)c1ccccc1 | x | -0.25
CN/N=C(\Cc1nc2ccccc2[nH]1)c1ccccc1 | -0.1 | x
CN(c1ccccc1)c1cc(N2CCCCCC2)c2nonc2c1[N+](=O)[O-] | x | 0.045
O=C(O)CCS(=O)(=O)Nc1ccccc1 | -0.5 | x

Entries of single compounds from above. Order of values: AID504770 | CapD inh
`CCC(=O)Nc1cnc(OC)c(C(F)(F)F)c1` reads -0.3 | 0.18
`CCOc1cccc2cc(C(=O)Nc3ccc(Oc4ccccc4)cc3)c(=O)oc12` reads x | 1.48

New compounds follow
Compound | AID504770 | CapD inh
Cn1nc(C(=O)OC2CCCCC2=O)c2ccccc2c1=O (centres undefined) | 0.2 | x
O=C(OCC(=O)N1CCCCC1)c1ccccc1I | -0.65 | -0.88
CCOC(=O)c1ccc(CNC(=O)CSc2nnc(-c3ccc(OC)cc3)o2)cc1 | -0.65 | 0.535
N#Cc1ccccc1S(=O)(=O)N1CCN(C(=O)c2cc(C3CC3)nn2-c2ccccc2)CC1 | -0.2 | x
Cc1ccc(NC(=O)CSc2nnc(NC(=O)CC(C)C)s2)cc1 | 1.5 | -0.19
N#CC1=C(N)Oc2c(c(=O)oc3ccccc23)C1c1cccc(Br)c1 (centres undefined) | x | 0.26
O=C(NCCC1=CCCCC1)C1CCN(S(=O)(=O)N2CCCC2)CC1 | 1.3 | 0.415
CC(C)CCn1nnnc1CN1CCN(Cc2ccc3c(c2)OCO3)CC1 | 0.2 | x
O=C1NC(=O)C(CC(=O)c2ccccc2)S1 (centres undefined) | -0.55 | -0.91
Cc1ccc2c(c1)N(C(=O)N1CCCC(C(=O)NCCCc3ccccc3)C1)CC(C)O2 (centres undefined) | 0.45 | 0.685
C/C(=C\C(=O)C(F)(F)F)NC1CCCCC1 | 0.2 | x
NC(=O)C1CCCN1S(=O)(=O)c1ccc2ccccc2c1 (centres undefined) | -0.15 | -0.09
CC(C)(C)NC1c2cccc3cccc(c23)C1NS(=O)(=O)c1ccccc1 (centres undefined) | -0.5 | 0.16
CN1C(=O)C(CC(=O)Nc2ccc(F)cc2)N(NC(=O)c2cccc(F)c2)C1=S (centres undefined) | 1.45 | 0.175
NC(=O)CSc1nc2c(c(=O)n1C1CCCCC1)C1(CCCCC1)Cc1ccccc1-2 | x | 0.59
CC1(C)CN(c2cccc(N3CC(C)(C)C3=O)n2)C1=O | 0.5 | -0.775
